From PubChem BioAssay
miR-21 FLuc – miR-21 reporter, rising signal | AID 2288 | 340,000 tested, under 10 active | Potency, µM (highest dose often 38.3 µM), for the others: at the highest dose reporter change, positive = more light | HeLa miR-21 FLuc reporter, luciferase, 48 h; active = well fitted rising curve with a large enough effect; inconclusive = small, poorly fitted or top-dose-only effect; inactive = no such curve, though single readings can be large or run the other way;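 further: % of control where 0% means no effect; miR-21 action dims this reporter so a rising signal means less miR-21 action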
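HeLa miR-21-FLuc reporter line, endogenous miR-21; 2000 cells/well in DMEM/10% FBS; compound titration up to ~40uM final, 48 h, 37 degree Celsius; luciferase detection reagent, 15 min lysis, CCD luminescence.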
Starred values were filed as active, the others as inactive; u = inconclusive; [ ] = another dose, or the depositor's remark. A portion of the library; count on the stated rates, not on these rows.

entry | miR-21 FLuc | structure
1 | 13.5% | O=S(=O)(Nc1ccc(-c2ccc(N3CCCC3)nn2)cc1)c1ccc(C(F)(F)F)cc1
2 | 9.1% | CCC1CCCCN1C(=O)Cn1c(=O)n(-c2ccccc2C(F)(F)F)c(=O)c2c(C)c(C(=O)N(C)C)sc21 (stereo not drawn)
3 | -5.7% | CCOc1ccccc1NC(=O)Cn1c(=O)n(Cc2ccc(C(=O)NCCCOC)cc2)c(=O)c2ccccc21
4 | -7.5% | CCOc1ccccc1NC(=O)CSc1nc2cc(OC)c(OC)cc2c2nc(CCn3c(C)nc4ccccc43)nn12
5 | 11.7% | O=C1CN(C(=O)C2CCCCC2)C(c2ccccc2)c2cc(F)ccc2N1 (stereo not drawn)
6 | -22.0% | CCN(CCCNC(=O)c1cc2cc3ccc(OC)cc3nc2s1)c1ccccc1
7 | -45.0% | O=C(Nc1ccc(F)cc1)N1CCN(c2ccccc2F)CC1
8 | 19.7% | CCOC(=O)N1CCC(NC(=O)c2ccc3c(c2)N(Cc2cc(C)ccc2C)C(=O)c2ccccc2S3=O)CC1 (stereo not drawn)
9 | 29.5% | COc1ccc(N(C(=O)c2cc(OC)c(OC)c(OC)c2)S(=O)(=O)c2ccc(C)cc2)cc1
10 | -9.1% | COc1ccc(C2=C(N3CCN(c4cccc(C)c4C)CC3)c3ccccc3C2=O)cc1
11 | -25.6% | CCOc1ccc(NC(=O)CC2C(=O)N(c3ccc(C)cc3)C(=O)N2C2CCCCC2)cc1 (stereo not drawn)
12 | -8.3% | Cc1cccn2c(=O)c3cc(C(=O)NCc4cccnc4)c(=N)n(CCCO)c3nc12

Next entries follow.
entry | miR-21 FLuc | structure
13 | -9.1% | COc1ccc(OC)c(NC(=O)c2cc3cccc(OC)c3oc2=O)c1
14 | -15.9% | CCCCNC(=O)c1cnc2sc(N3CCCCC3)nn2c1=O
15 | 20.1% | COc1ccc(Cn2ccc3nc(C)c(C(=O)N4CCN(c5cccc(OC)c5)CC4)cc3c2=O)cc1
16 | 1.0% | O=C(NCc1cccc(Cl)c1)c1oc(=O)c2ccccc2c1-c1ccccc1
17 | -1.0% | COc1ccc(-c2oc3ncn4nc(-c5ccccc5Br)nc4c3c2-c2ccc(OC)cc2)cc1
18 | -2.2% | COc1ccccc1NC(=O)c1c(NCc2ccc(C)o2)sc2c1CCCCC2
19 | 10.8% | CCN(CC)C(=O)CSc1nc2ccccc2c(=O)n1Cc1ccco1
20 | 5.9% | COc1cccc(C(=O)Nc2nc(-c3nnn(-c4ccccc4C(F)(F)F)c3C)ns2)c1
21 | -2.3% | COc1ccccc1OCCn1c(NC(=O)c2ccc(Cl)cc2)nc2ccccc21
22 | 5.6% | Cc1nnc(NCc2ccccc2)c2c1nnn2Cc1ccccc1Cl
23 | 1.8% | Cc1cccc(OCC(=O)Nc2ccccc2C(=O)OCc2cc(=O)n3ccsc3n2)c1
24 | -38.6% | Cc1cccc(-n2ncc3c(NCCOCCO)ncnc32)c1

(list continues)
entry | miR-21 FLuc | structure
25 | -30.7% | CCOC(=O)c1ccc(Nc2c(-c3ccc(N(C)C)cc3)nc3nc[nH]n23)cc1
26 | -3.3% | COc1cc2c(c(OC)c1)C(c1cc(OC)c(OC)c(OC)c1)CC(=O)N2 (stereo not drawn)
27 | -0.8% | Cc1cc(C)c(NC(=O)Cn2c(=O)n(CCC(=O)NCc3ccccc3Cl)c(=O)c3sccc32)c(C)c1
28 | 6.1% | COc1ccccc1CNC(=O)Cc1c(C)c2c(cc(C)c3c(C)c(C)oc32)oc1=O
29 | -58.9% | Cc1ccc(SCC(=O)Nc2ccc3oc(-c4ccc(F)cc4)nc3c2)cc1
30 | 9.8% | Cc1ccccc1Nc1nnc(-c2ccc(C)c(S(=O)(=O)N3CCCCC3)c2)c2ccccc12
31 | 6.7% | CCOC(=O)c1ccc(OC(=O)c2cn(-c3cccc(OC)c3)c(=O)c3ccccc23)cc1
32 | -0.2% | COc1ccc(CNC(=O)CSc2nc3ccsc3c(=O)n2Cc2ccccc2Cl)cc1
33 | 5.4% | COc1cccc(CN2CCCN(CC(=O)Nc3ccc4c(c3)OCCO4)S2(=O)=O)c1
34 | 3.1% | COc1cccc(CNC(=O)CN2C(=O)CSc3c2c(C)nn3-c2ccccc2)c1
35 | 10.4% | CCOC(=O)c1cc(C)n(CC2CCC(C(=O)Nc3ccc(OCC)cc3)CC2)c1C (stereo not drawn)
36 | -6.4% | Cc1nn2c(=O)cc(COC(=O)Cc3ccccc3)nc2s1

(more compounds)
entry | miR-21 FLuc | structure
37 | -12.3% | CCCCNC(=O)c1cnc2sc(N3CCCCCC3)nn2c1=O
38 | 16.0% | CCSc1nn(CC(=O)Nc2cccc(CC)c2)c(N)c1S(=O)(=O)c1ccccc1
39 | 0.9% | CCN(c1ccccc1)c1nnc(NC(=O)Nc2cccc(Cl)c2C)s1
40 | 2.1% | COc1cccc(-c2nc3c(c(SCC(=O)Nc4cc(C)ccc4C)n2)Cc2c(CO)cnc(C)c2O3)c1
41 | 4.5% | Cc1oc2ncn(CC(C)C)c(=O)c2c1C(=O)NCc1cccc(Cl)c1
42 | -1.4% | CC(C)(C)NC(=O)c1cnn(-c2ccccc2)c1C1CCN(C(=O)OC(C)(C)C)CC1
43 | 2.0% | NS(=O)(=O)c1ccc(NC(=O)CN2CCN(c3ccc(F)cc3)CC2)cc1
44 | 3.7% | Cc1ccc2c(=O)c(C(=O)c3cccc(Cl)c3)cn(CC(=O)Nc3ccc4c(c3)OCCO4)c2n1
45 | 10.3% | O=C(c1ccc2c(c1)N(Cc1ccccc1)C(=O)c1ccccc1S2(=O)=O)N1CCc2ccccc21
46 | -9.6% | Cc1cc(F)ccc1-n1nnc(C(N)=O)c1C
47 | -2.0% | Cc1ccc(CSC2=Nc3ccccc3C3=NC(CC(=O)NCc4ccc5c(c4)OCO5)C(=O)N23)cc1 (stereo not drawn)
48 | -40.4% | CC(NC(=O)C1CCN(C(=O)N2CCOc3ccc(Cl)cc32)CC1)c1ccccc1 (stereo not drawn)

Other entries follow.
entry | miR-21 FLuc | structure
49 | -1.2% | O=C(Nc1ccc(N2CCN(c3ccc(F)cc3)CC2)c(C(=O)O)c1)c1cccs1
50 | 5.0% | CCOC(=O)c1ccc(NC(=O)CSc2ccc(-c3sc(C)nc3C)nn2)cc1
51 | 10.3% | Cc1cc(C)c(OCC(=O)N(Cc2ccc(N(C)C)cc2)Cc2ccco2)c(C)c1
52 | -1.9% | CCOc1ccccc1CNC(=O)c1ccc2nc(CCc3ccccc3)oc2c1
53 | 6.7% | COc1cc(O)ccc1-c1nc2cc(C)ccn2c1Nc1ccccc1C
54 | 0.2% | Cc1ccc(N2CCN(C(=O)c3ccc4c(Cl)c5c(nc4c3)CCCC5)CC2)c(C)c1
55 | 8.3% | O=C(CSc1nc2ccccc2nc1Cc1ccccc1)N1CCCCC1
56 | -11.3% | Cc1ccc2nc(Cl)c3cc(C(=O)N4CCCCC4C)sc3c2c1 (stereo not drawn)
57 | 1.8% | Cc1ccc(C(C)C)c(OCCCn2c(=O)oc3ccccc32)c1
58 | 4.2% | COc1cc(NC(=O)CSc2nc(-c3cccs3)cc(C(F)(F)F)n2)cc(OC)c1OC
59 | -1.5% | Cc1csc2nc(COC(=O)COc3ccccc3F)cc(=O)n12
60 | -3.5% | Cc1nc2c(C(=O)NCc3ccccc3Cl)cnn2c(C)c1Cc1c(F)cccc1Cl

Next part.
entry | miR-21 FLuc | structure
61 | u | CCCc1ccc(C2Sc3ccccc3NC3=C2C(=O)c2ccccc23)cc1 (stereo not drawn)
62 | 29.1% | CC(=O)NCCc1nc2ccccc2n1CCCCOc1ccc(Cl)cc1
63 | -0.4% | COc1ccc(OC)c(C2c3c(-c4ccc(Br)cc4)n[nH]c3C(=O)N2c2ccc(Cl)cc2)c1 (stereo not drawn)
64 | 2.1% | O=C(COc1ccccc1)Nc1ccccc1OCc1cc(=O)n2ccccc2n1
65 | 1.5% | COc1ccc(/C=C/c2nc(-c3ccccc3O)n(-c3ccccc3)n2)cc1OC
66 | 0.2% | COc1ccc(C(=O)n2nc(-c3cccnc3)nc2NCc2ccccc2)cc1OC
67 | 13.4% | O=C(Nc1ccc2nc(SCC(=O)N3CCCc4ccccc43)sc2c1)c1cccc(Cl)c1
68 | -50.2% | Fc1cccc(-c2nc(-c3ccncc3)no2)c1
69 | 3.0% | Cc1ccc(CCNC(=O)CN2N=C(c3ccc(C)cc3)CCC2=O)cc1
70 | -22.1% | O=c1oc2c(CN3CCOCC3)c(O)ccc2cc1-c1ccccc1
71 | -2.2% | Cc1nn(C(=O)c2c(F)cccc2F)c(C)c1S(=O)(=O)N1CCOCC1
72 | 3.1% | Cc1nc(C)c(-c2ccc(SCC(=O)Nc3ccc(C)c(F)c3)nn2)s1

Following part
entry | miR-21 FLuc | structure
73 | -2.8% | CCOc1ccccc1NS(=O)(=O)c1ccc2c(c1)oc(=O)n2C
74 | 0.5% | CCOC(=O)c1[nH]c(C)c(CCC(=O)NCc2ccccc2C)c1C
75 | -2.4% | Cc1ccccc1NC(=O)CSc1nc2nccnc2c(=O)n1CCc1c[nH]c2ccccc12
76 | 0.4% | Cc1c(C(=O)N2CCCCCC2)c(S(=O)(=O)NCc2ccccc2)c(C)n1C
77 | 5.6% | COc1ccc(S(=O)(=O)N(CC(=O)NCc2ccccc2OC)c2ccc(C)cc2)cc1
78 | -2.1% | CCOc1ccccc1CNCc1c(C(=O)O)c(C)n(Cc2ccc(Cl)cc2)c1C
79 | 8.6% | CCOC(=O)c1ccc(NC(=O)CC2C(=O)N(c3cccc(OC)c3)C(=O)N2Cc2ccc(OC)cc2)cc1 (stereo not drawn)
80 | u | Cc1cc(C)cc(NS(=O)(=O)c2ccc3[nH]cc(C(=O)NC4CCCCC4)c(=O)c3c2)c1
81 | -3.5% | Nc1c(C(=O)NCCc2ccccc2)nnn1CC(=O)Nc1ccc(Cl)cc1
82 | 10.3% | Cc1ccc2c(Sc3ccc(Cl)cc3)c(C(=O)NCCC(C)C)[nH]c2c1
83 | 22.5% | COc1ccc(CNC(=O)C/C(C)=N/NC(=O)c2cc(OC)cc(OC)c2)cc1
84 | 22.3% | COc1cccc(-c2ccc3c(N)c(C(=O)NCc4ccc(Cl)cc4)sc3n2)c1

(more compounds)
entry | miR-21 FLuc | structure
85 | 15.8% | CCc1ccc(CNC(=O)c2cccc(-n3c(C)nc4cccnc43)c2)cc1
86 | -1.3% | COCCCNC(=O)CCCn1c(SCC(=O)c2ccc(Br)cc2)nc2c(sc3ccccc32)c1=O
87 | 9.4% | Cn1cc(-c2cc3n(n2)CCC(=O)N3CCCC(=O)Nc2ccccc2Cl)c2ccccc21
88 | 12.3% | COc1ccc(N2CCN(C(CNS(=O)(=O)c3c(C)cc(C)cc3C)c3ccco3)CC2)cc1 (stereo not drawn)
89 | -2.0% | Cc1cc(Nc2ccc(C(=O)O)c(O)c2)n2ncnc2n1
90 | -0.8% | COc1cccc(C(=O)CC(=O)C(=O)Nc2cc(OC)c(OC)c(OC)c2)c1
91 | u | Cc1cc(C)cc(NC(=O)CSc2nccn2-c2ccccc2)c1
92 | -2.6% | O=C(O)CSc1c2c(nc3cc(C(=O)Nc4ccc(F)c(Cl)c4)ccc13)CCC2
93 | 0.0% | Cc1ccc(CSC2=Nc3ccccc3C3=NC(CCC(=O)NCc4cccs4)C(=O)N23)cc1 (stereo not drawn)
94 | -0.4% | CCN(c1ccccc1)S(=O)(=O)c1ccc(NC(=O)c2cc(=O)c3ccc(C)c(C)c3o2)cc1
95 | 3.2% | Cc1ccc(NC(=O)c2cc3nc(-c4ccc5c(c4)OCO5)cc(C(F)(F)F)n3n2)cc1Cl
96 | 0.8% | COc1ccc(Cn2c(=O)n(Cc3ccco3)c(=O)c3oc4ccccc4c32)cc1

Next entries
entry | miR-21 FLuc | structure
97 | 13.7% | COc1ccc(CCNC(=O)CSc2cn(CCNC(=O)c3c(F)cccc3F)c3ccccc23)cc1OC
98 | 9.8% | CCc1ccccc1Nc1nn2c(=O)c3ccc(C(=O)NCCC4=CCCCC4)cc3nc2s1
99 | -0.1% | O=C1C(=O)N(C2CCN(C(=O)c3cccc(Cl)c3)CC2)CCN1Cc1ccc(F)cc1
100 | -10.3% | Cc1cc(C)c2c(=O)cc(C(=O)Nc3ccccc3C(F)(F)F)oc2c1
101 | 2.8% | COc1ccc(OC)c(NC(=O)Cn2ccc3ccccc3c2=O)c1
102 | 1.9% | Cc1cc(NC(=O)c2cccs2)cc(-c2nc3cc(Cl)ccc3o2)c1O
103 | -8.0% | COc1ccc(C)c2sc(N3CCN(C(=O)c4cccc(F)c4)CC3)nc12
104 | 0.1%[7.66 µM] | CCCCn1c(C)cc2c(c1=O)C1O[C@](c3ccsc3)(Cc3ccccc31)O2
105 | -7.3% | Cc1cc(C)c(NC(=O)c2cc(S(=O)(=O)N3CCC4(CC3)OCCO4)ccc2F)c(C)c1
106 | u | O=C(CSc1nc2c([nH]c3ccccc32)c(=O)n1-c1ccccc1F)Nc1cccc(C(F)(F)F)c1
107 | -44.5% | O=c1c(NCc2cccs2)nccn1-c1ccccc1
108 | -3.4% | CCC(=O)N1CCc2cc(CNC(=O)Cc3ccc(OC)c(OC)c3)ccc21

(listing goes on)
entry | miR-21 FLuc | structure
109 | -1.4% | CCOc1ccc(NC(=O)CN2C(=O)COc3ccc(S(=O)(=O)Nc4ccccc4)cc32)cc1
110 | 5.5% | CCOc1cc(C2C(C(=O)OC)=C(C)NC3=C2C(=O)c2ccccc23)ccc1OC (stereo not drawn)
111 | 2.6% | COc1ccc(CNC(=O)CCS(=O)(=O)c2cc(Br)cc3c2N(C(C)=O)C(C)C3)cc1 (stereo not drawn)
112 | 5.7% | O=C(CC1C(=O)N(c2ccccc2)C(=O)N1CCC1=CCCCC1)Nc1ccc(F)cc1 (stereo not drawn)
113 | 0.0% | O=C(Nc1ccc(OCc2cc(=O)n3c4c(sc3n2)CCCC4)cc1)c1ccccc1
114 | -5.2% | COc1ccc(-c2noc(-c3ccc(NCC4CCCO4)c([N+](=O)[O-])c3)n2)cc1OC (stereo not drawn)
115 | -0.3% | CCc1ccccc1NC(=O)Cn1c(-c2nonc2N)nc2ccccc21
